# Screens deposited in PubChem by National Center for Advancing Translational Sciences (NCATS).
# LASV entry inh = blocks Lassa virus binding to or entry into cells; Lassa virus pseudotype entry inhibition, cell reporter; control for the full effect not named in the record; Potency, µM (series often up to 37.9 µM), inactives show at the highest dose activity change, negative = inhibition, actives largely listed as inhibitors; 300,000 tested, 1.2% active; active means well fitted inhibition curve with a large enough effect; inconclusive means small, poorly fitted or top-dose-only effect, or effect the other way; inactive means flat fitted curve, though single readings scatter; tested in HEK293 cells; note: % is set by controls: 0 for no effect and ±100 for the full control effect; nearly all actives have a fitted effect of over 50% in size; luciferase read-out
# Cruzain inh noDet = cruzain (T. cruzi) inhibition without detergent. AID 1476. P25779. purified cruzain, Z-FR-AMC fluorescence, no detergent. Potency, µM, for inactives: max response, negative = inhibition, actives largely listed as inhibitors. 200,000 tested, 2.3% active; active = well fitted curve in the direction sought with a large enough effect; inconclusive = small, poorly fitted or top-dose-only effect, or another doubt; inactive = no such curve, though single readings can be large; an effect the other way counts as inactive or inconclusive;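 note: plate controls were enzyme without inhibitor for no effect and buffer without enzyme for full effect; nearly all actives have a fitted effect of over 40% in size; top concentration of the series not given in the record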
# Target sequence (P25779 123-467 limits assumed): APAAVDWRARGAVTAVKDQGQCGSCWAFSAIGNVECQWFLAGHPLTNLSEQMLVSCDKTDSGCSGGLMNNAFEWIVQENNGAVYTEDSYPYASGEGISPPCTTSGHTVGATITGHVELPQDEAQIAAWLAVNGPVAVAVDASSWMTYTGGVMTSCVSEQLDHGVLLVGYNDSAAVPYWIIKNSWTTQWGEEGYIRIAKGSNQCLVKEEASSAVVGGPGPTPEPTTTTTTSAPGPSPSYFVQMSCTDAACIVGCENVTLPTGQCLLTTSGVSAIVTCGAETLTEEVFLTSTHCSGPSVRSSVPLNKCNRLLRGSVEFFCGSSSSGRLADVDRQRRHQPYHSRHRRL
#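 Purified cruzain at 1.5 nM, pre-incubated 15 min with compound at room temperature in 100 mM sodium acetate pH 5.5, 5 mM DTT, 0.00005% Triton X-100. Reaction started with 2 uM Z-FR-AMC; AMC fluorescence increase over 60 s gives rate.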
# StopGo reporter = lowers the luciferase signal of an FMDV 2A StopGo reporter | human cells with a luciferase reporter of 2A StopGo recoding; control for the full effect not named in the record | 410,000 tested, 1.2% active | Potency, µM (doses to about 57.9 µM), inactives show top-dose signal change, negative = less light; active = well fitted falling curve with a large enough effect; inconclusive = small, poorly fitted or top-dose-only effect; inactive = no such curve, though single readings can be large or run the other way; tested in HEK293T cells; note: % is set by controls: 0 for no effect and ±100 for the full control effect; nearly all actives have a fitted effect of over 45% in size; luciferase light after 4 h
# NS1 function inh = blocks influenza NS1 protein function. AID 2326. S. cerevisiae slowed by influenza A NS1, growth recovery by OD600. Potency, µM (titrated, usually from 46.1 µM), for the others: at the top dose activity, positive = more growth. 270,000 tested, 0.4% active; note: actives are rising curves; nearly all actives have a fitted effect of over 50% in size
#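 In this qHTS, NS1 from influenza A is expressed in budding yeast, where it slows growth. Cells are switched from glucose to 2% galactose medium (pH 6.0, -URA), treated with compound, and growth recovery is read at OD600.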
# MARV entry inh = Marburg virus entry inhibition. Potency, µM (series often up to 37.8 µM), without a hit: top-dose activity change, negative = inhibition, usual class: inhibitors. Marburg virus pseudotyped entry inhibition, cell reporter; control for the full effect not named in the record; about a third of the inactives were read at about 46 µM. 300,000 tested, 1.8% active; active = well fitted inhibition curve with a large enough effect; inconclusive = small, poorly fitted or top-dose-only effect, or effect the other way; inactive = flat fitted curve, though single readings scatter; tested in HEK293 cells; about a fifth of its hits are not listed in these tables; note: % is set by controls: 0 for no effect and ±100 for the full control effect; luciferase read-out
# RE007 growth inh = less growth of the S. pombe RE007 Vpr strain. S. pombe RE007 Vpr strain, BacTiter-Glo ATP luminescence, 24 h; control for the full effect not named in the record. Potency, µM (titrated, usually from 92.2 µM), for the others: top-dose activity change, negative = less growth. 360,000 tested, 0.21% active. AID 651644; active = well fitted falling curve with a large enough effect; inconclusive = small, poorly fitted or top-dose-only effect; inactive = no such curve, though single readings can be large or run the other way;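 note: % is set by controls: 0 for no effect and ±100 for the full control effect; nearly all actives have a fitted effect of over 50% in size; the assay follows cell death caused by Vpr and the record does not say whether a fall means rescue or toxicity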
#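 Fission yeast RE007 carrying one integrated HIV-1 vpr copy, seeded at OD 0.01 in PMG+AL medium with 23 nL pinned compound. Grown 24 h at 30 degrees; viability read by BacTiter-Glo luminescence after 5 min.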
# SARS PLP yeast = blocks SARS-CoV papain-like protease in a yeast assay. AID 485353. 330,000 tested, 0.19% active. Potency, µM (top dose mostly 32.9 µM), without a hit: at the top dose activity, positive = growth rescue. S. cerevisiae expressing SARS-CoV PLpro, growth rescue; control for the full effect not named in the record; note: 0% is about no effect; nearly all actives have a fitted effect of over 55% in size; growth read by luminescence after 48 h
# Cruzain inh Det = blocks cruzain activity in presence of Triton detergent; P25779; purified cruzain, Z-FR-AMC fluorescence, 0.01% Triton; Potency, µM, for inactives: max response, negative = inhibition, usual class: inhibitors; 200,000 tested, 0.43% active; active = well fitted curve in the direction sought with a large enough effect; inconclusive = small, poorly fitted or top-dose-only effect, or another doubt; inactive = no such curve, though single readings can be large; an effect the other way counts as inactive or inconclusive;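 note: plate controls were neutral wells for no effect and buffer without enzyme for full effect; nearly all actives have a fitted effect of over 40% in size; top concentration of the series not given in the record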
#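 Steps: dispense cruzain (1.5 nM final) in acetate buffer pH 5.5 with DTT and 0.01% Triton X-100; pin-transfer compounds; incubate 15 min RT; add Z-FR-AMC (2 uM final); read fluorescence every 30 s, using the 60 s intensity change.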
# * marks the source's active call; other numbers are inactive results; ? = inconclusive; · = not tested or not shown; & = joins results of further samples; [ ] = remark or other dose. Unless noted, calls come from the whole dose curve; as a rule, active means well fitted rising curve with a large enough effect; inconclusive means small, poorly fitted or top-dose-only effect; inactive means no such curve, though single readings can be large or run the other way. Potency is the fitted concentration of half-maximal effect.
nr	structure	LASV entry inh	Cruzain inh noDet	StopGo reporter	NS1 function inh
1	Oc1ccccc1C1CCCCC1c1ccccc1 (configuration not stated)	-22%	·	-7%	-42%
2	C=CCn1c(/N=C/c2ccc(OC)cc2)nc2ccccc21	·	·	22%	-3%
3	O=C(Nc1ccccc1)c1ccc2nc(-c3ccco3)c(-c3ccco3)nc2c1	?	?	-23%	-40%
4	COc1ccc(OCC(=O)Nc2ccc(OC)c(S(=O)(=O)N3CCCCC3)c2)cc1	?	·	-15%	·
5	CC(C)NCc1cccc([N+](=O)[O-])c1	?	7%	5%	15%
6	CCOC(=O)c1cc(CC)sc1/N=C/c1c(O)[nH]c(=S)[nH]c1=O	-7%	4%	3%	-17%
7	CN(C)S(=O)(=O)c1ccc(NC(=O)CSc2n[nH]c(=O)n2C2CC2)cc1	·	·	-10%	4%
8	Cc1ccc(-c2nn(CCC#N)cc2C=C(C#N)C#N)cc1	19%	-15%	·	9%
9	CCOc1ccc(CCNS(=O)(=O)c2c(C)nc3scc(C)n3c2=O)cc1OCC	-1%	0%	-11%&-13%	21%
10	CC(C)CCNC(=O)CCCN1C(=O)c2ccccc2Sc2ncccc21	?	-7%	-12%	·

nr	MARV entry inh	RE007 growth inh	SARS PLP yeast	Cruzain inh Det
1	-30%	?	-12%	·
2	·	3%	-1%	·
3	-23%&4%	-6%	0%	?
4	?	-19%	1%	·
5	10%	3%	13%	-1.0%
6	4%	-9%	-21%	-5.2%
7	·	-15%	1%	·
8	4%	5%	3%	-7.1%
9	8%&-8%[46.1 µM]	2%	2%	-2.3%
10	·	·	·	-1.8%

# Next part:
nr	structure	LASV entry inh	Cruzain inh noDet	StopGo reporter	NS1 function inh
11	O=C(CN1C(=O)NC2(CCCC2)C1=O)N1CCN(c2ccccc2O)CC1	1%	·	12%	·
12	CN1C(=O)C(C(=O)Nc2ccccc2F)c2ccccc21 (configuration not stated)	-2%	1%	8%	-4%
13	O=C(OCC(O)CN1CCCCC1)C12CC3CC(CC(C3)C1)C2 (configuration not stated)	0%	-11%	-15%	1%
14	CCOC(=O)CSc1nc2ccccc2c(=O)n1-c1ccc(C(=O)NCCOC)cc1	24%[46.1 µM]	20%&-2%	-19%&-19%	-5%
15	O=C(OCC(=O)c1ccc(Cl)cc1Cl)c1cnccn1	18%[46.1 µM]	·	6%	-2%
16	COc1ccc(-c2nc(CS(=O)CC(=O)NCc3ccccn3)c(C)o2)cc1 (configuration not stated)	·	13%	-31%	14µM*
17	COc1ccc(C2C(C(C)=O)=C(O)C(=O)N2c2ccc(F)cc2)cc1 (configuration not stated)	·	·	-4%	-4%
18	CCOC(=O)C1CCCN(c2c(NCCCN(CC)c3cccc(C)c3)c(=O)c2=O)C1 (configuration not stated)	-4%	-1%	-19%	-8%
19	COc1ccc(N=Cc2c(O)n(-c3ccc(C)cc3)c(=O)[nH]c2=O)cc1	?	·	21%	3%
20	COc1ccccc1N1CCN(c2cc(=O)n(-c3ccc(Cl)cc3)c(=O)[nH]2)CC1	·	-18%	0%	4%

nr	MARV entry inh	RE007 growth inh	SARS PLP yeast	Cruzain inh Det
11	-12%	-15%	-4%	·
12	7%	14%	14%	-4.1%
13	4%[46.1 µM]	31%	1%	4.3%
14	-20%	3%	0%	1.9%&-2.4%
15	-1%[46.1 µM]	-9%	-1%	·
16	·	19%	25%	-8.2%
17	·	1%	7%	·
18	-1%	-3%	-3%	1.5%
19	0%[46.1 µM]	-2%	-1%	·
20	·	-4%	-3%	-1.4%

# Ordered by length of the SMILES (low to high): part of the list above
nr	structure	LASV entry inh	Cruzain inh noDet	StopGo reporter	NS1 function inh
13	O=C(OCC(O)CN1CCCCC1)C12CC3CC(CC(C3)C1)C2 (configuration not stated)	0%	-11%	-15%	1%
17	COc1ccc(C2C(C(C)=O)=C(O)C(=O)N2c2ccc(F)cc2)cc1 (configuration not stated)	·	·	-4%	-4%
16	COc1ccc(-c2nc(CS(=O)CC(=O)NCc3ccccn3)c(C)o2)cc1 (configuration not stated)	·	13%	-31%	14µM*
14	CCOC(=O)CSc1nc2ccccc2c(=O)n1-c1ccc(C(=O)NCCOC)cc1	24%[46.1 µM]	20%&-2%	-19%&-19%	-5%
20	COc1ccccc1N1CCN(c2cc(=O)n(-c3ccc(Cl)cc3)c(=O)[nH]2)CC1	·	-18%	0%	4%

nr	MARV entry inh	RE007 growth inh	SARS PLP yeast	Cruzain inh Det
13	4%[46.1 µM]	31%	1%	4.3%
17	·	1%	7%	·
16	·	19%	25%	-8.2%
14	-20%	3%	0%	1.9%&-2.4%
20	·	-4%	-3%	-1.4%

# (more compounds)
nr	structure	LASV entry inh	Cruzain inh noDet	StopGo reporter	NS1 function inh
21	CNC(=O)CSP(=S)(OC)OC	·	3%	-18%&-10%	·
22	O=C(COc1ccc2c(c1)OCO2)NC12CC3CC(CC(C3)C1)C2	4%	-15%	12%	-28%
23	COC(=O)NCCOC(=O)N(O)c1ccc(Br)cc1	-3%	5%	34%[activator]	?
24	O=S(=O)(c1ccc(F)cc1F)N1CCN(CCO)CC1	9%	·	-21%	·
25	Cc1c(CCC(=O)N2CCC(C(=O)O)CC2)c(=O)oc2cc3oc4c(c3cc12)CCCC4	·	·	?	0%
26	CCOc1cc(/C=N/n2cnnc2)c(Br)cc1O	16%	-2%	·	-16%
27	Cc1nc2ccc(NC(=O)N3CCCCC3)cc2s1	29%[14.3 µM]	0%	57%[activator]	-11%[9.22 µM]
28	Cc1ccc(/C=C/C(=O)N2CCN(c3ncccn3)CC2)o1	11%	7%	?	-24%
29	O=C(c1ccc(COc2ccc(F)cc2)o1)n1cc(Br)cn1	3%	?	12%	-4%
30	CCOC(=O)Cc1c(C)nc2c(-c3ccc(OC)c(OC)c3)c(C)nn2c1C	?	?	?	·

nr	MARV entry inh	RE007 growth inh	SARS PLP yeast	Cruzain inh Det
21	·	0%	·	1.4%
22	6%[46.1 µM]	-18%	-5%	-2.2%
23	5%	-3%	4%	3.5%
24	21%	-2%	·	·
25	·	-6%	0%	·
26	18%	-10%	-4%	-2.5%
27	?	-11%	-6%	-1.0%
28	-5%	-2%	-19%	-8.2%
29	6%	-1%	-4%	14µM*
30	-24%[46.1 µM]	·	·	-2.4%

# Next part
nr	structure	LASV entry inh	Cruzain inh noDet	StopGo reporter	NS1 function inh
31	Cc1cc(C)c(S(=O)(=O)NC2CC2)c(C)c1	?	·	37%[activator]	6%
32	O=C(COc1ccccc1)N1CCN(C/C=C/c2ccccc2)CC1	-8%	18%	-22%	-5%
33	CCOC(=O)N1CCN(C2CCCN(C(=O)c3cccc(N(C)C)c3)C2)CC1 (configuration not stated)	-28%[46.1 µM]	·	-9%	10%
34	Cc1ccc(OCC(=O)c2cc(C)n(-c3cc(C)on3)c2C)c([N+](=O)[O-])n1	-15%	·	12%	·
35	O=C(OCC1OC(n2cc(Br)c(=O)[nH]c2=O)C(Br)C1O)c1ccccc1 (configuration not stated)	·	·	-3%	3%
36	CCN1/C(=C/c2ccc3cc(C)ccc3[n+]2CC)Sc2cc(C)c(C)cc21	2µM*	·	?	-51%
37	COc1ccc(NC(=O)CSc2nc3ccccc3c(=O)n2CCCN2CCOCC2)c(OC)c1	-30%	·	0%	5%
38	CC1CN(C(=O)CCC(=O)N2CCN(c3ccccn3)CC2)c2ccccc2O1 (configuration not stated)	·	·	-25%	-3%
39	COc1ccccc1-n1c(SCC(=O)Nc2ccc(Br)cc2)nc(O)cc1=O	-9%	·	0%	16%
40	Cc1cccn2c(CN[C@@H]3CCCC[C@H]3c3ccccc3)c(C(=O)N3CCOCC3)nc12	19%[46.1 µM]	·	?	3%

nr	MARV entry inh	RE007 growth inh	SARS PLP yeast	Cruzain inh Det
31	0%	-27%	-10%	·
32	-9%	-8%	0%	6.0%
33	-10%[46.1 µM]	-2%	-1%	·
34	4%	-3%	-4%	·
35	·	3%	1%	·
36	?	?	-7%	·
37	-27%[46.1 µM]	1%	1%	·
38	·	-7%	-6%	·
39	2%	-21%	1%	·
40	?	-16%	1%	·

# Continued:
nr	structure	LASV entry inh	Cruzain inh noDet	StopGo reporter	NS1 function inh
41	N#CC(C#N)=C1C(=O)N(CCN2CCCCC2)c2ccccc21	16%[46.1 µM]	·	?	1%
42	CCOC(=O)CSc1nnc2n(-c3ccccc3)c(=O)c3c4c(sc3n12)CC(C(C)(C)C)CC4 (configuration not stated)	-2%[46.1 µM]	25%	-11%	·
43	O=C(CN1C(=O)S/C(=C\C=C\c2ccccc2)C1=O)Nc1cccc(O)c1	-3%	-21%	-19%	7%
44	N#Cc1c(N2C(=O)Nc3ccccc3N2O)sc2c1CCCCCC2	-9%	2%	8%	-5%
45	CC1CCCN(S(=O)(=O)c2cc3c(cc2Cl)NC(=O)CO3)C1 (configuration not stated)	-9%[46.1 µM]	16%	28%	·
46	CCOC(=O)C1CCN(C(=O)CSc2c3c(nc4ccccc24)CCC3)CC1	16%	·	-28%	·
47	CCCOc1ccc(C(C)=O)cc1Cc1c(O)[nH]c(=S)[nH]c1=O	?	·	-6%	?
48	Cc1cccc(C(=O)N2CCCCCC2)c1[N+](=O)[O-]	·	·	-12%	4%
49	O=C(O)c1ccccc1C(=O)NNc1cccc(Cl)n1	13%	·	15%	5%
50	CCOC(=O)CSC1=NC(=O)/C(=C/c2ccc(Br)cc2)S1	5%	·	25µM*	·
51	O=C(CCC(=O)N1C[C@H]2C[C@@H](C1)c1cccc(=O)n1C2)NCc1cccc(C(F)(F)F)c1	·	·	-20%	1%

nr	MARV entry inh	RE007 growth inh	SARS PLP yeast	Cruzain inh Det
41	-10%[46.1 µM]	-18%	1%	·
42	4%[46.1 µM]	·	·	-12%
43	?	1%	-12%	-6.0%
44	5%	6%	16%	-9.8%
45	·	·	·	-4.8%
46	0%[46.1 µM]	3%	-3%	·
47	3%	-1%	2%	·
48	·	26%	-1%	·
49	?	0%	0%	·
50	8%[46.1 µM]	?	-24%	·
51	·	8%	2%	·
